Compound activity from PubChem.
Ecoli growth = E. coli growth inhibition, primary screen, OD600. AID 1053175, 2014. 330,000 tested, 0.21% active. OD600 absorbance (concentration not given with the values). Escherichia coli growth, 23 h; hits give low values;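 active = OD600 absorbance below the run mean of sample wells minus 3.6 SD, in any replicate, cut at about 0.56 in these data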;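 also: stock transfer was 300 nL into about 60 µL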
AF4-AF9 inh = inhibitors of AF4 peptide binding to AF9, primary screen, biochemical, AlphaScreen, biotin-AF4 peptide, FLAG-AF9, single point. Protein AF-9 (Homo sapiens), P42568. inhibition, % at 10 µM. 350,000 tested, 0.47% active;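 active = every replicate reaching a set inhibition limit, whatever the replicate mean, cut at about 25% in these data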;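 also: 0% = plate neutral control median and 100% = total signal loss; the record names both 10 and 1 µM as test concentration; the first replicate is given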
Target sequence (P42568 whole entry, looked up): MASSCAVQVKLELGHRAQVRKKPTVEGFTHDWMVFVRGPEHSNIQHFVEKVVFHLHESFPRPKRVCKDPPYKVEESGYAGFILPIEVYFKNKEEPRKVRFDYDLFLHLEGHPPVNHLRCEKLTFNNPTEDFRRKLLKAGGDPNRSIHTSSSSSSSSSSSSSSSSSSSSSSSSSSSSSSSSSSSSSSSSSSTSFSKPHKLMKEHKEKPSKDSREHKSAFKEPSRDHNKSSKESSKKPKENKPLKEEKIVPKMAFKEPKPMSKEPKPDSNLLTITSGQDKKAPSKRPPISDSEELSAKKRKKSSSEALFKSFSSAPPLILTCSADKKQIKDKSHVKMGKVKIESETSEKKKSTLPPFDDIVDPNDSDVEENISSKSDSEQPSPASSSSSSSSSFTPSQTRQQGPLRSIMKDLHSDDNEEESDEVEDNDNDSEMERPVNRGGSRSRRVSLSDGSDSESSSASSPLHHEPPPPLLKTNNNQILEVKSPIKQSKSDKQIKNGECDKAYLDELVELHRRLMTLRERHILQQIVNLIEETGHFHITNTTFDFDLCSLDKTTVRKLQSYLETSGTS
Ecoli rRNA inh = reduced GFP signal of wild-type E. coli, primary screen, bacterial rRNA inhibitor project, GFP/RFP fluorescence, OD600, single point; GFP signal change (wild-type ribosome), % (no concentration beside the values); E. coli WT GFP vs humanized-ribosome RFP mutants, 24 h; hits give low values; DMSO median 0, no signal -100; 350,000 tested, 1.6% active; AID 720706, 2013;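 active = significant combined selectivity score with lowered wild-type GFP, culture density cut under 30%, mutant RFP and density less affected; inactive = any of these conditions unmet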; also: one replicate is shown; some compounds called inactive have numbers as strong as hits
FGF22 binding = binders of human FGF22 protein, primary screen, FGF22 synaptogenesis inhibitor project, biophysical, thermal shift, single point; recombinant FGF22 thermal shift, SYPRO orange fluorescence; percent of sucrose octasulfate shift, DMSO zero; calls only at 9.99 µM; 340,000 tested, 1.5% active;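 active = melting point raised past a set limit in the mean and every replicate; three in four hits are not shown here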
Target sequence (Q9HCT0 whole entry, looked up): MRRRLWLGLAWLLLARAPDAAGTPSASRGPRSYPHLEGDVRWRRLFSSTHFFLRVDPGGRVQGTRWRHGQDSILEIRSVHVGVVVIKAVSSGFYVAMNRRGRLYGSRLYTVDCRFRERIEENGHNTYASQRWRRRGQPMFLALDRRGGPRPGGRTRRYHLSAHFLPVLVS
UCH37 inh = inhibitors of human UCH37 deubiquitinase, primary screen, biochemical, Ub-AMC cleavage, fluorescence; Ubiquitin carboxyl-terminal hydrolase isozyme L5 (Homo sapiens), Q9Y5K5; purified proteasome/UCH37; inhibition, % (test concentration not listed); 330,000 tested, 0.33% active; AID 588478, 2011;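 active = mean of two replicates above 20%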;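 also: 0% = compound-free wells with enzyme and 100% = wells lacking proteasome; stock transfer was 100 nL into about 20 µL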
Target sequence (Q9Y5K5 whole entry, looked up): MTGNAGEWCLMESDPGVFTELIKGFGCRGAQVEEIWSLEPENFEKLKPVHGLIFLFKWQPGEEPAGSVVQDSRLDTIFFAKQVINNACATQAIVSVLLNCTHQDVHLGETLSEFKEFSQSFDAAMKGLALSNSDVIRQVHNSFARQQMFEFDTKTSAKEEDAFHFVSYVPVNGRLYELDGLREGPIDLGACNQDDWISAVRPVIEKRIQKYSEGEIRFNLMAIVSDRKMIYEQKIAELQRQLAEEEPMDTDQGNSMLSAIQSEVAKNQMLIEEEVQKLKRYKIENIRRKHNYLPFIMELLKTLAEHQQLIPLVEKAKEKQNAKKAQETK
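Material: human UCH37 enzyme supplied as purified proteasome complex / Amount: 0.15 nM proteasome as dispensed / Buffer or medium: pH 7.4 Tris-HCl (50 mM) with ovalbumin, ATP-MgCl2, DTT / Times: preincubation 30 min, reaction 25 min, room temperature / Technique: AMC fluorescence from Ub-AMC cleavage, excitation 355 nm, emission 460 nm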
T cruzi repl = inhibitors of intracellular T. cruzi growth, primary screen, luminescence, NIH3T3 host cells. 300,000 tested, 1.4% active. inhibition, % (concentration not given with the values). AID 1885, 2009. T. cruzi beta-gal in NIH3T3, 90 h;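 active = mean inhibition across valid replicates above about 55%, limit read from the data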;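 also: signal also drops with host cell toxicity which is not excluded here; 0% = plate median of DMSO wells and 100% = zero luminescence signal; higher percent means less beta-gal luminescence so fewer parasites; stock transfer was 50 nL into about 50 µL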
Ecoli rRNA inh OD600 = second read-out of Ecoli rRNA inh, no call of its own (marks repeat the call); OD600 change, %; measured here: OD600 growth;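 optical density of the mix in the first replicate; 0 = DMSO median and -100 = no signal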
Ecoli rRNA inh RFP = second read-out of Ecoli rRNA inh, no call of its own (marks repeat the call); RFP signal change, %; measured here: RFP humanized mutant strains;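 first replicate; 0 = DMSO median and -100 = no signal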
* hit, by the source's call; i = inactive; x = no result given; & = joins results of further samples.

SMILES | Ecoli growth | AF4-AF9 inh | Ecoli rRNA inh | Ecoli rRNA inh OD600 | Ecoli rRNA inh RFP | FGF22 binding | UCH37 inh | T cruzi repl
COc1ccc2nc(-c3ccc(CN4CCC(n5nnc6ccccc65)CC4)cc3)c(-c3ccccc3)nc2c1 | x | x | 6 | 15 | 4.9 | i | x | x
CC1[C@H]2Cc3ccc(O)cc3[C@]1(C)CCN2C (stereo partly drawn) | x | x | 8 | 2 | 1.5 | i | x | x
O=C(Cc1ccccc1)N1CCCCN2[C@H](CO)[C@@H](c3ccc(-c4ccccc4)cc3)[C@@H]2C1 | x | x | -58 | -70 | -9.8 | i | x | x
Cc1cc(N2CCNC[C@@H]2C)ccc1N1CC[C@H](O)C1 | x | x | 10 | 12 | 5.2 | i | x | x
CN1C[C@H](O)[C@H]2C[C@@H]1c1ccccc1O2 | x | x | 34 | 24 | 2.2 | i | x | x
CC(C)S(=O)(=O)N1Cc2ccc(Br)cc2-n2nncc2C1 | x | x | 0 | -3 | 4.1 | i | x | x
O=C(O)CCl | x | x | 0 | -5 | -1.8 | i | x | x
N#CCCC#N | x | x | 7 | 2 | -0.7 | i | x | x
Cc1ccc(N2Cc3ccccc3-n3nncc3C2)cc1 | x | x | -5 | -2 | 0.1 | i | x | x
c1ccc(Cc2cnc(N3CCNCC3)nc2)cc1 | x | x | 24 | 12 | 4.7 | i | x | x
Oc1ccc2c3c1O[C@H]1c4[nH]c5c(c4CC4(O)C(C2)N(CC2CC2)CCC314)CC1(O)[C@H]2Cc3ccc(O)c4c3[C@@]1(CCN2CC1CC1)C5O4 (stereo partly drawn) | x | x | 1 | 4 | -2.5 | i | x | x
N#Cc1cccc(-c2ccc([C@@H]3[C@@H](CO)N4CCCCN(C(=O)Cc5cccnc5)C[C@H]34)cc2)c1 | x | x | -2 | -6 | 0.6 | i | x | x
COc1cccc(C(=O)NCCN2CCC3(CC2)C(=O)NCN3c2ccccc2)c1 | x | x | 19 | 23 | 1.4 | i | x | x
O=C(C1CC1)N1C[C@@H]2N[C@H](C1)C2c1ccc(-c2cncnc2)cc1 (stereo partly drawn) | x | x | 9&-1 | 4&6 | 1.4&1.1 | i | x | x
CS(=O)(=O)N1CCC2CCNC2C1 (stereo not drawn) | x | x | -44 | -74 | -13 | i | x | x

Quoted from the listing.
Entry of N#Cc1cccc(-c2ccc([C@@H]3[C@@H](CO)N4CCCCN(C(=O)Cc5cccnc5)C[C@H]34)cc2)c1 under Ecoli rRNA inh: -2
Entry of CC1[C@H]2Cc3ccc(O)cc3[C@]1(C)CCN2C (stereo partly drawn) under Ecoli rRNA inh OD600: 2

Further records
SMILES | Ecoli growth | AF4-AF9 inh | Ecoli rRNA inh | Ecoli rRNA inh OD600 | Ecoli rRNA inh RFP | FGF22 binding | UCH37 inh | T cruzi repl
O=S(=O)(c1ccccc1)N1CCC2CCNC2C1 (stereo not drawn) | x | x | 33 | 20 | 4.3 | i | x | x
O=C(NCCN1CCC2(CC1)C(=O)NCN2c1ccccc1)c1cccc(F)c1 | x | x | 15 | 10 | 1.6 | i | x | x
CN1C2(C)c3ccccc3C1(c1ccccc1)c1ccccc12 | x | x | -30 | -35 | -10 | i | x | x
COC(=O)C1CC(OC(C)=O)C(=O)[C@H]2C1(C)CC[C@H]1C(=O)OC(c3ccoc3)CC12C (stereo partly drawn) | x | x | 1 | 4 | -0.5 | i | x | x
CN1C2CCC1C(C(=O)Oc1ccccc1)C(c1ccc(Cl)cc1)C2 (stereo not drawn) | x | x | 10 | -5 | 2.7 | i | x | x
O=c1[nH]c2cc(Cl)ccc2n1C1CCN(Cc2ccc(-c3nc4ccc(F)cc4nc3-c3ccccc3)cc2)CC1 | x | x | 12 | 20 | -0.2 | i | x | x
O=C(Cc1ccccc1)N1CCCCN2[C@H](CO)[C@H](c3ccc(-c4ccccc4)cc3)[C@H]2C1 | x | 5.7 | -59 | -77 | -8.1 | x | x | x
c1cc(-c2ccc(C3[C@H]4CNC[C@@H]3N4CC3CC3)cc2)ccn1 (stereo partly drawn) | x | 38* | 6 | 15 | -0.4 | x | x | x
COC(=O)[C@H]1[C@H](CO)[C@H]2Cn3c(ccc(-c4cccc(C(=O)N(C)C)c4)c3=O)[C@@H]1N2C(=O)NC(C)C | x | 0.1 | 1 | 5 | -0.8 | x | x | x
C[C@H]1CN([C@@H](C)CO)C(=O)c2c(c3ccccc3n2C)-c2ccccc2CO[C@H]1CN(C)C(=O)Oc1ccccc1 | x | -0.7 | -4 | -10 | 10.0 | x | x | x
COc1ccc(C(=O)C2CCCN(CCc3ccccc3)C2)cc1OC (stereo not drawn) | x | 0.0 | -3 | 1 | -3.3 | x | x | x
COC(=O)[C@@H]1[C@@H](CO)[C@@H]2Cn3c(ccc(C4=CCCCC4)c3=O)[C@H]1N2CC1CCCC1 | x | 7.6 | -2 | -14 | 12 | x | x | x
Cc1cccc(S(=O)(=O)N2[C@@H]3Cn4c(ccc(-c5ccc(F)cc5)c4=O)[C@H]2[C@@H](C(=O)O)[C@@H]3CO)c1 | x | 1.7 | -2 | 0 | -1.1 | x | x | x
COC(=O)[C@H]1[C@H](CO)[C@H]2Cn3c(ccc(-c4ccccc4)c3=O)[C@@H]1N2CC1CCCC1 | x | 0.9 | -4 | -9 | -1.2 | x | x | x
CCCC(=NO)c1c[nH]c2ccccc12 | 0.67 | x | x | x | x | x | -5.1 | x

Next part; it opens with the five that closed the last part.
SMILES | Ecoli growth | AF4-AF9 inh | Ecoli rRNA inh | Ecoli rRNA inh OD600 | Ecoli rRNA inh RFP | FGF22 binding | UCH37 inh | T cruzi repl
COc1ccc(C(=O)C2CCCN(CCc3ccccc3)C2)cc1OC (stereo not drawn) | x | 0.0 | -3 | 1 | -3.3 | x | x | x
COC(=O)[C@@H]1[C@@H](CO)[C@@H]2Cn3c(ccc(C4=CCCCC4)c3=O)[C@H]1N2CC1CCCC1 | x | 7.6 | -2 | -14 | 12 | x | x | x
Cc1cccc(S(=O)(=O)N2[C@@H]3Cn4c(ccc(-c5ccc(F)cc5)c4=O)[C@H]2[C@@H](C(=O)O)[C@@H]3CO)c1 | x | 1.7 | -2 | 0 | -1.1 | x | x | x
COC(=O)[C@H]1[C@H](CO)[C@H]2Cn3c(ccc(-c4ccccc4)c3=O)[C@@H]1N2CC1CCCC1 | x | 0.9 | -4 | -9 | -1.2 | x | x | x
CCCC(=NO)c1c[nH]c2ccccc12 | 0.67 | x | x | x | x | x | -5.1 | x
CC(C)CC12CN3CCN(CC(C3)C1=NO)C2 | 0.73 | x | x | x | x | x | 4.5 | x
COc1ccc(C=NN=C(N)N[N+](=O)[O-])c(OC)c1 | 0.76 | x | x | x | x | x | 19 | x
O=C(CSC1c2ccccc2-c2ccccc21)NN=Cc1ccccc1O | 0.69 | x | x | x | x | x | -4.1 | x
COC(=O)C1C(O)C(C)C(O)C(C)C=CC=C(C)C(=O)Nc2c(C)c(OC(C)=O)c3c(c2O)C(=O)C(C)=C2OCOC(=C23)C(C)=CC(C)(O)C(O)C(C)C1O (stereo not drawn) | 0.12* | x | x | x | x | x | 16 | x
Cc1onc(-c2c(Cl)cccc2Cl)c1C(N)=NOC(=O)N(C)C | 0.69 | x | x | x | x | x | 0.8 | x
COC[C@]12CN(C)C3C4[C@H](OC)C1C3([C@@H](OC)C[C@H]2O)[C@@H]1C[C@@]2(O)[C@H](OC(=O)c3ccccc3)[C@@H]1[C@]4(OC(C)=O)[C@@H](O)[C@@H]2OC | 0.72 | x | x | x | x | x | 0.2 | x
NC(=NCCCC(NC(=O)CNC(=O)c1ccccc1)C(=O)O)N[N+](=O)[O-] (stereo not drawn) | 0.68 | x | x | x | x | x | 3.7 | x
ON=Cc1c[nH]c2ccccc12 | 0.76 | x | x | x | x | x | 2.7 | x
O=C(NN=C1CN2CCC1CC2)c1cccc(O)c1 | 0.72 | x | x | x | x | x | 2.1 | x
COc1ccc(OC)c(C=NOC(=O)Nc2ccc(Cl)cc2)c1 | 0.61 | x | x | x | x | x | -29 | x
COc1ccccc1C=NN=C(N)N[N+](=O)[O-] | 0.61 | x | x | x | x | x | 13 | x
CN(CN=C(N)N[N+](=O)[O-])S(=O)(=O)c1ccccc1 | 0.65 | x | x | x | x | x | 2.7 | x
O=C(Nc1ccc(Cl)cc1)ON=C(c1ccccc1)c1ccccn1 | 0.64 | x | x | x | x | x | 1.7 | x
C[C@]12CCC3C(CCC4=CC(=NOCC(=O)NC(CCC(=O)O)C(=O)O)CC[C@@]43C)C1CCC2O (stereo partly drawn) | 0.73 | x | x | x | x | x | 3.9 | x
CCOC(=O)c1cc(C(O)(C(=O)OC)C(F)(F)F)c(N=CN(C)C)o1 (stereo not drawn) | 0.71 | x | x | x | x | x | 10 | x
O=C1NC(=S)N(c2ccc(F)cc2)C(=O)/C1=C\c1ccoc1 | 0.71 | x | x | x | x | x | 19 | x
Nc1ccc(C(=O)NN=C2CN3CCC2CC3)cc1 | 0.71 | x | x | x | x | x | 2.7 | x
CCCCC(=NO)c1c[nH]c2ccccc12 | 0.67 | x | x | x | x | x | 3.1 | x
CC12CC[C@H]3[C@@H](CCC4(O)C[C@H](O)CCC34C=NNC(=O)Cc3ccccc3)C1(O)CCC2C1=CC(=O)OC1 (stereo partly drawn) | 0.7 | x | x | x | x | x | 4.1 | x
COc1cc(C=Nn2cnnc2)ccc1OC(=O)N(C)C | 0.66 | x | x | x | x | x | -2.3 | x
COc1cc(C=NNP(=S)(c2ccccc2)c2ccccc2)ccc1O | 0.7 | x | x | x | x | x | 2.2 | x
C#CC1(O)CCC2C3CCC4=CC(=NOCC(=O)NCC(=O)NC(C(=O)O)C(C)C)CC[C@]4(C)C3CC[C@@]21C (stereo partly drawn) | 0.68 | x | x | x | x | x | 0.5 | x
Cc1ccc2c(c1)N(CCC(=O)N1CCC3(CC1)OCCO3)C(=O)C(C)O2 (stereo not drawn) | 0.64 | x | x | x | x | x | -1.4 | x
CCOc1ccc(-n2c(-c3ccoc3)nc3ccccc3c2=O)cc1 | 0.75 | x | x | x | x | x | -0.4 | 8
N[C@@H](Cc1c[nH]c2ccccc12)c1nnc(SCc2ccc(F)cc2)o1 | 0.65 | x | x | x | x | x | 2.3 | 16
C1CNC2NCCNC2N1 (stereo not drawn) | 0.69 | x | x | x | x | x | 3.1 | 2
C[C@H]1CN([C@@H](C)CO)C(=O)CCCn2nncc2CO[C@@H]1CN(C)C(=O)Oc1ccccc1 | x | -5.5&0.1 | 4&4 | 9&6 | 1.6&-1.6 | i | x | x
O=C(NCC1=C(c2cccc3ccccc23)C[C@@H]2CC[C@H]1N2Cc1ccco1)c1ccncc1 | x | 7.4 | 10 | 2 | 5.8 | i | x | x
CC(=O)O[C@H]1CC[C@]2(C)C3CC[C@@]4(C)C(C[C@@H](O)[C@@H]4O)C3[C@@H](OC(C)=O)C[C@H]2C1 (stereo partly drawn) | x | -0.8 | -1 | 0 | 2.2 | i | x | x
O=C(O)COc1cc(Cl)c(Cl)cc1Cl | x | -7.6 | 1 | 6 | -1.5 | i | x | x
O=C1Nc2ccccc2Oc2ccccc21 | x | -1.0 | -5 | -7 | -2.5 | i | x | x
CC(C)(C)n1nnnc1C(c1cc2ccccc2o1)N1CCC2(CC1)C(=O)NCN2c1ccccc1 (stereo not drawn) | x | 5.2 | -3 | 0 | 1.2 | i | x | x
O=C1NCN(c2ccccc2)C12CCN(C(c1cc3ccccc3o1)c1nnnn1-c1ccc3c(c1)OCCO3)CC2 (stereo not drawn) | x | 0.9 | 0 | 6 | 1.4 | i | x | x
CC(C)(C)n1nnnc1C(CCc1ccccc1)N1CCC2(CC1)C(=O)NCN2c1ccccc1 (stereo not drawn) | x | 2.1 | 10 | -1 | -1.6 | i | x | x

This is a subset; the hit share may differ from the screen's.
